Compound activity from PubChem BioAssay.
miR-21 reporter = miR-21 reporter, rising signal; AID 2288; HeLa miR-21 FLuc reporter, luciferase, 48 h; 340,000 tested, under 10 active; Potency, µM (top dose mostly 38.3 µM), for the others: at the highest dose reporter change, positive = more light; active = well fitted rising curve with a large enough effect; inconclusive = small, poorly fitted or top-dose-only effect; inactive = no such curve, though single readings can be large or run the other way;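 also: % of control where 0% means no effect; miR-21 action dims this reporter so a rising signal means less miR-21 action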
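Using DMEM plus 10% FBS, HeLa miR-21-FLuc cells are incubated with test compounds (final up to about 40uM) for 48 hours; firefly luciferase signal is then imaged following reagent-mediated lysis.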
Rango dissoc inh = prevents RanGTP from dissociating the Rango-importin beta complex; O95149+P62826; AID 540253; Potency, µM (series often up to 46.1 µM), inactives show top-dose activity change, negative = inhibition; Biochemical FRET Rango-importin beta, RanGTP-induced dissociation; actives 0.071% (n = 340,000); active means falling FRET ratio curve, often poorly fitted, with flat reads before Ran was added; inconclusive means other falling curves, or compound fluorescence or quenching; inactive means flat or rising ratio curve;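 also: potency is read from the fitted curve at half-maximal effect; % of control where 0% means no effect; nearly all actives have a fitted effect of over 45% in size; -100% = wells without RanGTP and RCC1; the record marks most hits as doubtful in a second field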
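Compounds preincubate 5 min with complex of recombinant Rango and importin beta in PBS with 1 mM DTT. Ran (0.6 uM) loaded with 2 mM GTP plus 0.2 uM RCC1 starts dissociation; FRET is recorded 45 min later.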
GLA inh pH 4.5 = alpha-galactosidase A (human) inhibition, pH 4.5 | purified enzyme, 4-MU-alpha-Gal fluorescence, pH 4.5 | activity change, negative = inhibition, % at 105 µM | 230,000 tested, under 10 active | AID 1467; inconclusive = small, poorly fitted or top-dose-only inhibition, or a rising curve; inactive = flat fitted curve, though single readings scatter; no compound was filed as active;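 also: 0% = full activity with enzyme and -100% = basal without enzyme; dose as in the result columns while the protocol names 77 µM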
Rango complex inh = prevents formation of the Rango-importin beta complex; Q14974; Potency, µM (highest dose often 92.2 µM), inactives show at the highest dose inhibition of complex formation; Rango CFP/YFP FRET sensor + importin beta, 45 min; actives 0.031% (n = 340,000); AID 540263; active = rising FRET ratio curve, often small or poorly fitted; inconclusive = mostly compound fluorescence or quenching in the first reads; inactive = flat curves in all reads;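 also: potency is read from the fitted curve at half-maximal effect; 0% = DMSO wells and 100% = buffer wells lacking importin beta; nearly all actives have a fitted effect of over 15% in size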
Target sequence (Q14974 whole entry, looked up): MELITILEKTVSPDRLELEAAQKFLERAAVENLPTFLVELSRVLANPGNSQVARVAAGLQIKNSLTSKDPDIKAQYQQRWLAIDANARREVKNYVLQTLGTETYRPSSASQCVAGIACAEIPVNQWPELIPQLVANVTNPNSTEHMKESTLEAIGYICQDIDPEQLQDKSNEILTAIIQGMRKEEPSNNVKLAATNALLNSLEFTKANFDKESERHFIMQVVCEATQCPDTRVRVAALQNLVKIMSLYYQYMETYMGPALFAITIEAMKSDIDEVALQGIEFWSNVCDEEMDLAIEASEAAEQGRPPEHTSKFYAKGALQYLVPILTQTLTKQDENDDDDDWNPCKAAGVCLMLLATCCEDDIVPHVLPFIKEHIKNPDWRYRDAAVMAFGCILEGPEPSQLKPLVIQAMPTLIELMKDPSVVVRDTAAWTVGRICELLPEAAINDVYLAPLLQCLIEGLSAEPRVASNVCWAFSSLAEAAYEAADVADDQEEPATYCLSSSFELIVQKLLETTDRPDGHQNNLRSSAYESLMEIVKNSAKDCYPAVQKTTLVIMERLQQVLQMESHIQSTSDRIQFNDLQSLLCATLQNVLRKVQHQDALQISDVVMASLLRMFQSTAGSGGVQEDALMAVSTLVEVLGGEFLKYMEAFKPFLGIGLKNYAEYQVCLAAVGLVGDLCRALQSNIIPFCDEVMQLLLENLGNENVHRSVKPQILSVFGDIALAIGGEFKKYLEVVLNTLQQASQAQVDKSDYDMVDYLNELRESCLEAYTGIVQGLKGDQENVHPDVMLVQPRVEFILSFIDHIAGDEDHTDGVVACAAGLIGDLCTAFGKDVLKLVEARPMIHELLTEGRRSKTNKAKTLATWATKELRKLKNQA
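FRET biosensor (snurportin 1 IBB flanked by EYFP and cerulean), 50 nM, with compound 5 min, then 0.125 microM importin beta in PBS, 1 mM DTT, 0.02% Tween-20, 0.1% BSA. CFP/YFP ratio read after 45 min at room temperature; pre-read flags interference.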
Active calls of the source: *; ? = inconclusive; · = no result given; & = joins results of further samples. These rows are one share of the data, so the mix of outcomes need not match the whole.

SMILES	miR-21 reporter	Rango dissoc inh	GLA inh pH 4.5	Rango complex inh
CC1=C(C(=O)Nc2cccnc2)C(c2ccccn2)n2nnnc2N1 (stereo unspecified)	2%	-1%	-10	1.7%
CCOc1ccc(S(=O)(=O)N(C)c2ccc(OCC(=O)Nc3ccccc3F)cc2)cc1	·	3%	·	2.8%
COc1ccc(-c2csc(Nc3ncccn3)n2)cc1C	-41%	12%	·	-0.1%
O=C(Cc1ccc(Br)cc1)N1CCN(C(=O)c2ccccc2)CC1	·	24%	·	-0.5%
COc1ccc(C2CC(c3ccccc3)=NN2C(=O)COC(=O)c2cccc(N)c2)cc1 (stereo unspecified)	·	2%	·	1.6%
COc1ccccc1N1CCN(CC(=O)NCCc2ccc(S(N)(=O)=O)cc2)CC1	-3%	-4%	0	-2.7%
Cc1oc2ccc(OCc3cccc(Cl)c3)cc2c1C(=O)O	-4%	28%	·	0.2%
COc1ccc(S(=O)(=O)N2CCCCCC2)cc1C(=O)NCCc1ccccc1	·	-6%	·	2.0%
O=c1[nH]c2cc3c(cc2cc1CN(Cc1nnnn1C1CCCC1)C1CCCC1)OCCO3	-13%	?	6	?
COc1ccccc1NC(=O)CN1CCCCCC1	0%	-1%	·	-3.0%
COC(=O)Cn1c(=NC(=O)c2cccc(OC)c2)sc2cc(OC)ccc21	-30%	10%	9	2.6%
COc1ccc(C)cc1NC(=O)CN1CCN(CC(=O)Nc2ccccc2F)CC1	-4%&3%	-3%	-4	-2.8%

Record cards, as listed above:
Entry for COC(=O)Cn1c(=NC(=O)c2cccc(OC)c2)sc2cc(OC)ccc21 → miR-21 reporter: -30%; Rango dissoc inh: 10%; GLA inh pH 4.5: 9; Rango complex inh: 2.6%
Entry for COc1ccc(C2CC(c3ccccc3)=NN2C(=O)COC(=O)c2cccc(N)c2)cc1 (stereo unspecified) → miR-21 reporter: ·; Rango dissoc inh: 2%; GLA inh pH 4.5: ·; Rango complex inh: 1.6%

Further entries follow:
SMILES	miR-21 reporter	Rango dissoc inh	GLA inh pH 4.5	Rango complex inh
COc1ccc(C[C@H]2CN3C(=NC[C@@H]3Cc3ccccc3)N2CCNC(=O)CCC2CCCCC2)cc1	?	9%	0	1.7%
CCOC(=O)CNS(=O)(=O)Cc1ccccc1	·	11%	·	-5.3%
COC(=O)Cn1c2[n+](c3ccccc31)CC(O)CS2 (stereo unspecified)	-6%	-9%	-3	0.1%
COc1ccc(-c2sc3ccc(-c4ccc5c(c4)OCO5)cc3c2-c2ccc(OC)nc2)cc1	·	2%	·	-4.8%
CCN(CC)CCCNC(=O)C1CCCN(c2nnc(N3CCCC3=O)s2)C1 (stereo unspecified)	1%	20%	-19	0.0%
O=C1C=C(c2ccc(C(=O)O)c(Cl)c2)C[C@@H](c2ccc3c(c2)OCO3)C1	·	-6%	·	2.3%
O=[N+]([O-])c1ccc(O)c(C(C#Cc2ccccc2)N2CCOCC2)c1 (stereo unspecified)	-21%	25%	1	-0.8%
OC1C2(Cc3ccccc3)CN3CCN(C2)CC1(Cc1ccccc1)C3 (stereo unspecified)	-1%	4%	9	2.0%
Cc1noc(C)c1COc1ccccc1C(=O)NNC(=O)c1ccccc1	·	-3%	·	2.0%
CCC(=O)Nc1cccc(NC(=O)c2cccc([N+](=O)[O-])c2C)c1	5%	1%	-2	3.1%
O=C(COC(=O)C1COc2ccccc2O1)Nc1cccc(S(=O)(=O)N2CCCCC2)c1 (stereo unspecified)	0%	-3%	1	1.9%
CCc1cccc(NC(=O)CN(C)S(=O)(=O)c2cccs2)c1	-23%	14%	1	-0.6%

Reformatted: 3 of the compounds above.
| SMILES | miR-21 reporter | Rango dissoc inh | GLA inh pH 4.5 | Rango complex inh |
| --- | --- | --- | --- | --- |
| CCOC(=O)CNS(=O)(=O)Cc1ccccc1 | · | 11% | · | -5.3% |
| O=C(COC(=O)C1COc2ccccc2O1)Nc1cccc(S(=O)(=O)N2CCCCC2)c1 (stereo unspecified) | 0% | -3% | 1 | 1.9% |
| COc1ccc(C[C@H]2CN3C(=NC[C@@H]3Cc3ccccc3)N2CCNC(=O)CCC2CCCCC2)cc1 | ? | 9% | 0 | 1.7% |

(cont.)
SMILES	miR-21 reporter	Rango dissoc inh	GLA inh pH 4.5	Rango complex inh
COc1ccc(-c2nnc(SCC(=O)c3ccc[nH]3)o2)cc1	-25%	5%	4	-4.5%
O=C(C1CCCN(S(=O)(=O)c2cccc3nonc23)C1)N1CCN(c2ccccc2Cl)CC1 (stereo unspecified)	17%&10%	0%	-2	?
CN(C)CCOC1c2ccccc2CSc2ccccc21 (stereo unspecified)	·	-19%	·	9.7%
Cc1csc(NC(=O)CN2C(=O)C3CC=CCC3C2=O)n1 (stereo unspecified)	-1%	14%	3	5.2%
COc1cc(OC)c(-n2cc(-c3ccc(OC)c(OC)c3)[nH]c2=S)cc1Cl	-2%	-17%	·	-4.4%
O=C(Cc1ccc(Cl)cc1Cl)OCC(=O)N1CCN(C(=O)c2ccco2)CC1	-2%	-9%	-3	-4.4%
O=C(c1ccco1)N1CCN(C(c2cccs2)c2sc3ncnn3c2O)CC1 (stereo unspecified)	-2%	3%	-7	-1.2%
COc1ccc(S(=O)(=O)Nc2ccc(NC(C)=O)cc2)cc1	1%	-5%	3	0.7%
O=C(CCc1nc2ccccc2c(=O)[nH]1)N1CCN(S(=O)(=O)c2ccc(F)cc2)CC1	·	3%	·	0.1%
CCOc1ccccc1OCC(=O)Nc1cccc(S(=O)(=O)N2CCCCCC2)c1	·	-17%	·	2.1%
COCCN(C(=O)c1csnn1)C(C(=O)NC(C)(C)C)c1cccc(OC)c1 (stereo unspecified)	-8%	0%	-1	-1.5%
COc1ccc(C(=O)c2no[n+]([O-])c2C(=O)c2ccc(OC)cc2)cc1	?	1%	2	1.0%
O=c1cc(-c2c(F)c(F)c(F)c(F)c2F)oc2c(F)c(F)c(F)c(F)c12	?	·	2	·
COc1cccc(CNC(=O)COc2cccc3c2OC(C)(C)C3)c1	·	15%	·	3.3%
COc1ccc(C(=O)N2CCCC(N3CCN(c4ccccc4OC)CC3)C2)c(OC)n1 (stereo unspecified)	5%	6%	·	1.9%
Cc1ccc(OCCn2ccnc2)c([N+](=O)[O-])c1	-3%	7%	·	-0.8%
CCn1cc(Br)c(C(=O)NN)n1	-40%	-12%	3	0.4%
COc1ccccc1N1CCN(CCNC(=O)Nc2cccc(C)c2C)CC1	4%	-8%	1	-3.0%
CCCOc1ccc(C(=O)Nc2ccc(S(=O)(=O)N3C[C@@H]4C[C@@H](C3)c3cccc(=O)n3C4)cc2)cc1	·	1%	·	-0.9%
O/N=C1\CCC\C1=C/c1ccco1	-10%	11%	3	-7.0%
Cc1nc(-c2ccc([N+](=O)[O-])cc2)c(-c2ccccc2)o1	-28%	10%	·	3.0%
Cc1cc(C)n2nc(SCC(=O)c3cc(C)n(-c4cc(C)on4)c3C)nc2n1	12%	16%	-1	-0.6%
CC(C)c1ccccc1-n1c(SCc2cc(=O)oc3ccc4ccccc4c23)nnc1-c1cccnc1	25%	26%	-1	?
COc1cc(NC(=O)c2ccccc2F)c(OC)cc1NC(=O)CN1CCOCC1	-24%	-2%	11	-1.9%
O=C(c1cc(COc2ccc(F)cc2F)on1)N1CCN(C(=O)c2ccco2)CC1	9%	?	·	2.6%
COc1ccc(-n2nc(C(=O)NCC(=O)NCC3CCCO3)c3ccccc3c2=O)c(OC)c1 (stereo unspecified)	-3%	-1%	3	0.2%
COc1ccc(-c2nnc(SCc3ccc(C(=O)O)cc3)o2)cc1OC	-2%	-5%	·	0.3%
O=C1c2ccccc2C(=O)c2c1cccc2N1CCN(Cc2ccccc2)CC1	-10%	-5%	-4	2.9%
CSc1ccc(NC(=O)NCCN2CCc3ccccc3C2)cc1	-14%	8%	-6	-1.1%
C=C(C)C1CC=C(C)/C(=N/NC(=O)c2ccoc2C)C1 (stereo unspecified)	-67%	17%	-3	0.2%
Cc1ccc(OCc2cc(C(=O)N(C)Cc3cc(C4CC4)n[nH]3)no2)cc1C	-26%	-23%	·	-5.3%
CCN(CC(=O)NC(C)C)C(=O)Cc1ccc(C)c(C)c1	-5%	-5%	7	2.9%
Nc1nc(N2CCCCC2)c(C=O)c(N2CCCCC2)n1	-10%	-11%	-3	-0.7%
Cn1c(O)c(N=NC(=O)c2ccco2)c2ccccc21	-34%	19%	2	0.5%
CCOC(=O)C1CCN(S(=O)(=O)c2cc(Br)cc3c2N(C(C)=O)C(C)C3)CC1 (stereo unspecified)	2%	0%	4	2.3%
Cc1c([N+](=O)[O-])cc(C(=O)NCc2ccc(F)cc2)cc1[N+](=O)[O-]	3%	12%	0	5.7%
C=CCn1c(SCC(=O)NC2CCCC2)nnc1-c1ccccn1	0%	-10%	·	5.4%
CC(C)(C)CN1CCNC(=O)C1CC(=O)N1CCN(c2ccccc2)CC1 (stereo unspecified)	-3%	-26%	3	-4.8%
O=C(O)c1ccc(NCc2nc3ccccc3n2CCOc2ccccc2Cl)cc1	-18%&-10%	-1%	-7	?
COc1cc(OC)c(NC(=S)Nc2cc(Cl)cc(Cl)c2)cc1Cl	2%	-9%	-5	0.1%
COCCN=c1scc(-c2cccs2)n1/N=C/c1ccc(O)c(O)c1O	3%	10%	11	1.2%
Cc1ccc(Cl)c(OCC(=O)N(C)CC(=O)Nc2ccc(N3CCOCC3)cc2)c1	·	-4%	·	0.6%
Cc1ccsc1/C=N/N1CCN(C2c3ccccc3-c3ccccc32)CC1	-11%	7%	4	-1.2%
N#CC1(Nc2ccc(Br)cc2)CCCC1	·	-7%	·	-4.0%
Nc1nc(SCC(=O)c2cccs2)n[nH]1	1%	19%	7	1.0%
Cc1ccc(CNC(=O)C2COc3ccccc3O2)cc1 (stereo unspecified)	-47%	-14%	-5	-1.1%
Cc1[nH]n2c(=O)c3c(nc2c1-c1cccc2ccccc12)CCC3	-3%	-7%	-12	-1.8%
CC(=O)Oc1cc(C)cc2oc(=O)cc(-c3ccccc3)c12	-5%	48%	·	-0.9%
CC(C)C1Nc2ccc(S(=O)(=O)N3CCOCC3)cc2NC1=O (stereo unspecified)	0%	-1%	-8	-2.4%
Cn1c(COc2ccc(Cl)cc2)nnc1SCC(=O)NC1CCCCC1	·	-22%	·	-0.5%
Cc1ccc(SCCSc2ncccn2)cc1	-39%	2%	·	-1.6%
O=C1c2ccccc2NC2(CCCC2)N1N=C1CCCC1	-32%	-20%	-13	-3.9%
COc1ccc(NC(=O)C(NS(=O)(=O)c2ccc3c(c2)CCCN3C(C)=O)C(C)C)c(OC)c1 (stereo unspecified)	-5%	-5%	3	?
CCCCn1c(N)c(N(CC(C)C)C(=O)c2cccc(S(=O)(=O)N3CCN(C)CC3)c2)c(=O)[nH]c1=O	·	1%	·	0.0%
CC(/C=C/C(=O)c1ccc(C)cc1)=C\c1ccccc1	-14%	2%	3	0.1%
S=C(Nc1ccc2nsnc2c1)N1CCCCC1	-36%	?	2	?
O=C(CN1C(=O)CCS(=O)(=O)c2ccccc21)NCCc1ccccc1	-1%	8%	·	0.1%
COc1cc(C(=O)NCCN2C(=O)S/C(=C\c3ccc(F)cc3)C2=O)ccc1OCC(=O)N1CCOCC1	-13%	13%	-13	-0.3%
CC(OC(=O)CCCN=C1NS(=O)(=O)c2ccccc21)C(=O)NC1CCCCC1C (stereo unspecified)	-1%	32%	·	-0.7%
C[C@H]1C(c2ccc(F)cc2)=NN(c2ccccc2)[C@@H]1CO	·	?	24	?

(cont.)
SMILES	miR-21 reporter	Rango dissoc inh	GLA inh pH 4.5	Rango complex inh
CCC(=O)Nc1nnc(C)s1	-3%	9%	-1	3.6%
O=C(NCCC(=O)N(Cc1ccco1)Cc1cccs1)c1ccc(Br)cc1	·	-8%	·	-0.9%
Cc1ccc(S(=O)(=O)NCCOCCNS(=O)(=O)c2ccc(C)cc2)cc1	-2%	-5%	0	-0.1%
COc1ccc(C(=O)Nc2ccccc2)cc1S(=O)(=O)Nc1cc(C)on1	-1%	1%	6	-0.6%
CCN(CC)S(=O)(=O)c1ccc2c(c1)CC(C(=O)N1CCCC1)N2C(C)=O (stereo unspecified)	-5%	-4%	·	0.7%
CCOc1cc(/C=N/n2cnnc2)ccc1OS(=O)(=O)c1ccccc1	-10%	0%	-4	-2.0%
Cc1ccc(/C=N/NC(=O)c2cccnc2)s1	-31%	-5%	-1	-1.7%
Cn1cc(C(=O)c2ccc(F)cc2)cc1-c1nc2ccccc2n1C	17%	2%	0	10%
